Rce1 inhib: yeast Ras-converting enzyme inhibition. calls only. Q03530. yeast membranes, quenched prenylated peptide cleavage fluorescence. 0.27% of 290,000 active;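 active = fall in fluorescence gain of 50% or more versus controls, with final raw signal at or below 3038400; inconclusive = same 50% fall but final raw signal above 3038400; inactive = fall in fluorescence gain under 50%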;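 also: plate controls were neutral control wells for no effect and wells lacking membranes for full effect; tested at 10 µM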
Target sequence (Q03530 whole entry, looked up): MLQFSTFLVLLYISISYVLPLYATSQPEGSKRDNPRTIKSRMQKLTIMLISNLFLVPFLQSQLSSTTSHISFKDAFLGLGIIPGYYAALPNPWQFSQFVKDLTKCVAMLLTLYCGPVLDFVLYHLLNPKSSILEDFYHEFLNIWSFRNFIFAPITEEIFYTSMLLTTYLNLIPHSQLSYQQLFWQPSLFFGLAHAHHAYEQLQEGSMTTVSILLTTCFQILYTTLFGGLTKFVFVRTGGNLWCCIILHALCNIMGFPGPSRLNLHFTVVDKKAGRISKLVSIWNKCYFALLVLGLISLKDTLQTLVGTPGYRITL
UUG fidelity: yeast start codon fidelity modulation; S. cerevisiae UUG-firefly luciferase reporter, luminescence/redox ratio; activity score, % at 18.7 µM; 0.13% of 350,000 active;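 active = replicate mean at a twofold rise or more, about +100% in these data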;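 also: firefly luciferase made from a UUG start codon reports start codon fidelity; reporter light over untreated wells divided by growth signal over untreated wells; some hits fall short of that in this replicate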
eIF4H inh: inhibitors of RNA binding by human eIF4H. Q15056. eIF4H fluorescence polarization binding assay. inhibition, % at 35 µM. 0.94% of 290,000 active. AID 2012;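 active = 50% or more with normal probe brightness, or confirmed in later tests; inconclusive = above 50% with abnormal brightness, or retests that disagree; inactive = below 50% or failed in later tests; about a fifth of its hits are not listed in these tables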;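 also: calls also rest on retests at 20 µM and on dose response follow-up; 0% = protein and probe with vehicle and 100% = probe without protein; strong numbers were not always called active; many hits fall short of the cut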
CSC inhib: blocks cancer stem cells. cancer stem cell-like cells viability, luminescence. inhibition, % at 7.5 µM. 1.1% of 300,000 active. AID 2717;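 active = mean at 75% or more and at least half the replicates too; inconclusive = mean and replicates disagree; tested in HMLE shEcad cells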;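 also: 0% = median of negative and 100% = median of positive control wells; the first replicate is given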
MT1-MMP act inh: inhibitors of human MT1-MMP activation; P50281; HT1080 RFP-PRO-GFP cells, GFP/RFP ratio fluorescence, overnight; percent of plate control window, DMSO zero; GFP/RFP ratio change, % at 20 µM; 0.061% of 360,000 active; AID 651647;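 active = GFP/RFP ratio change of at least 30% with cell ATP level not reduced by more than half and red fluorescence within 50% of control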; also: strong numbers were not always called active
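Test system: HT1080 cells expressing an RFP-PRO-GFP fluorescent reporter construct / Compound dosing: single-point 20 µM compound, 1% DMSO / Schedule: cells overnight before dosing, compound overnight, 37 °C, 5% CO2 / Evaluation: GFP/RFP fluorescence ratio / Control set: DMSO and RFP-L50D-GFP cell wells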
HIV Env fusion: blocks HIV Env-driven cell-cell fusion. HeLa-JRFL Env/CEM21 cell fusion, luciferase. inhibition, % at 12.3 µM. 1.1% of 360,000 active;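 active = mean replicate inhibition score of at least 50 and every replicate individually at or above 50; inconclusive = only one of the two criteria met; inactive = mean below 50 and not all replicates reaching 50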;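 also: 0% = plate neutral controls and 100% = maraviroc near 300 nM; one replicate is shown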
PABP polyA inh: blocks human PABP binding to poly(A) RNA; P11940; fluorescence polarization; inhibition, % at 35 µM; 1% of 290,000 active;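 active = 50% or more with normal probe brightness, or confirmed in later tests; inconclusive = above 50% with abnormal brightness, or retests that disagree; inactive = below 50% or failed in later tests; about a fifth of its hits are not listed in these tables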;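 also: calls also rest on retests at 20 µM and on dose response follow-up; controls were probe without protein and protein plus probe with vehicle; some compounds called inactive have numbers as strong as hits; many hits fall short of the cut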
Target sequence (P11940 whole entry, looked up): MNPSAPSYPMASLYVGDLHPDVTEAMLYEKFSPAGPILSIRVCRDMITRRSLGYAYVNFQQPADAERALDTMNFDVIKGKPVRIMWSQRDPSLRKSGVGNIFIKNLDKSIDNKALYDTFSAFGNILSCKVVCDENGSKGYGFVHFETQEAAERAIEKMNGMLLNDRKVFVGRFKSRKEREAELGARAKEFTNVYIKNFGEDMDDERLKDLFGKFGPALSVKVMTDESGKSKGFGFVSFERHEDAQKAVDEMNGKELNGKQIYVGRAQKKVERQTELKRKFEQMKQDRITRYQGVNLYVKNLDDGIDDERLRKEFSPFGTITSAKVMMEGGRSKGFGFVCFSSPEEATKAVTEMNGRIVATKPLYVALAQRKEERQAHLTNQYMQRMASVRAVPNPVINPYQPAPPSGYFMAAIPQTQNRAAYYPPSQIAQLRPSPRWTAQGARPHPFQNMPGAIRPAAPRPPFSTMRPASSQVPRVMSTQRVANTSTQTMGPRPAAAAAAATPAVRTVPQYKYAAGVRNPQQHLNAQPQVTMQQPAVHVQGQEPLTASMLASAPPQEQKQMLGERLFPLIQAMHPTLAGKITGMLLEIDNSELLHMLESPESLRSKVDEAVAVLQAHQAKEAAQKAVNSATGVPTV
eIF4H inh retest: recorded beside eIF4H inh, whose call it bears; inhibition, %; compound at 20 µM; confirmation average;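 mean of two retest wells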
PABP polyA inh retest: further read-out of PABP polyA inh, marked with its call; inhibition, %; compound at 20 µM; confirmation repeats;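 mean of two retest wells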
MT1-MMP act inh RFP: also measured in MT1-MMP act inh; calls as there; RFP signal change, %; measured here: RFP expression control read;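 0 = vehicle wells; hits needed this value within 50% of zero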
Active calls of the source: *; i = inactive; ? = inconclusive; . = not tested or not shown; & = joins results of further samples; [ ] = dose if it differs, or a comment. Only part of the results is shown; count on the stated rates, not on these rows.

SMILES	Rce1 inhib	UUG fidelity	eIF4H inh	CSC inhib	MT1-MMP act inh	MT1-MMP act inh RFP	HIV Env fusion	PABP polyA inh	others
CC1CCN(Cc2nnnn2CCCC(=O)N(C)C(C)c2ccccn2)CC1 (centres undefined)	i	-5.6	4.0	8.1	1.9	2.3	-0.2	1.0
C=CC(=O)Nc1sc2c(c1C(N)=O)CCCC2	i	-25.2	.	30.3	-6.8	-0.7	30.0	.
CN(Cc1ccc(Cl)cc1)C(=O)c1cc(S(=O)(=O)N2CCOCC2)ccc1N1CCCC1	i	-2.5	.	1.5	-0.1	-2.9	2.5	.
CCCSc1nc(C)c(C(C)=O)cc1C#N	i	-21.4	-10.9	1.3	1.0	1.5	.	3.5
O=C1C(Cc2c[nH]c3ccccc23)NC(=S)N1C1CCCCC1 (centres undefined)	i	.	6.7	-7.0	-1.8	4.5	22.0	-3.9
O=C(NCc1nnc(SCC(=O)N2CCN(c3ccccc3)CC2)o1)c1c(F)cccc1Cl	i	6.8	-7.2	.	2.5	0.6	8.7	3.0
Cc1csc(NC(=O)CSc2nnc(-c3ccc(Cl)cc3)n2N)n1	i	2.4	1.0	-3.1	0.4	0.6	6.1	-8.9
CCOC(=O)CS(=O)(=O)c1ccc(O)cc1	i	.	-3.0	-14.2	-2.7	-7.2	1.6	-10.9
CCOC(=O)c1c(-c2ccco2)csc1N	i	-14.9	24.6	-0.6	2.6	6.2	-102.8	30.2
COc1cc(/C=N/N2CCN(c3ccccc3)CC2)ccc1OC(C)=O	i	-16.8	-3.5	-10.6	6.8	3.7	-10.4	20.4
Cc1ccc(-c2ccc(/C=N/O)o2)cc1[N+](=O)[O-]	i	.	-3.0	5.6	4.3	0.8	-58.9	1.5
CCOc1ccc2nc(N3CCC(C(=O)N4CCN(c5ccccn5)CC4)CC3)sc2c1	i	17.4	7.8	18.3	0.2	-26.0	.	-2.4
CCc1ccc2c(c1)C(=O)C[C@]1(CCC[C@H](C)C1)O2	i	6.4	.	21.3	-2.6	0.1	-17.7	.
Cc1ccc(C)c(NC(=O)CN(C)C(=O)c2cc(S(=O)(=O)N3CCOCC3)ccc2N2CCCC2)c1	i	-2.5	-12.2	-8.0	-2.8	-2.5	6.8	-0.6
CCCNC(=O)c1cc(S(=O)(=O)N2CCCCC2)ccc1N1CCOCC1	i	-10.9	.	-2.2	0.0	0.6	-12.5	.
CCCCN(CC)CCNC(=O)c1cc2c(=O)n(CC)c3ccccc3c2s1	i	5.6	-2.0	-2.0	11.9	4.1	-17.7	0.4
CCOC(=O)/C(C#N)=N/Nc1ccc(S(=O)(=O)Nc2cc(OC)nc(OC)n2)cc1	i	-7.6	.	-7.7	-2.8	0.6	-7.6	.
COc1cc(CN2CCN(c3ccccc3F)CC2)c([N+](=O)[O-])cc1OC	i	-11.6	-12.1	-9.6	-3.8	-0.3	16.5	-11.6
COC(=O)c1ccc(C(C(=O)NC2CCCCC2)N(C(=O)Cc2cccs2)C2CC2)cc1 (centres undefined)	i	-6.4	-10.3	-10.7	1.0	-1.7	26.3	4.6
Cc1cc(C(=O)OCC(=O)NC2CC2)c2ccccc2n1	.	-20.7	.	.	0.3	1.4	9.7	.
Cc1ccc(OCCn2c(NC(=O)c3ccco3)nc3ccccc32)cc1	i	.	11.9	-3.1	-7.2	-8.5	.	7.2
CNc1nnc(-c2cc3cc(Cl)ccc3oc2=O)s1	i	-6.8	16.0	-5.7	-11.0	-1.0	.	6.3
COc1cccc(NC(=O)N(C)C[C@H]2Oc3cc(Br)ccc3S(=O)(=O)N([C@H](C)CO)C[C@H]2C)c1	.	-17.6&2.6	.	.	-0.3	-0.7	-10.5	.
Cc1csc(=O)n1CCC(=O)OCC(=O)Nc1ccc(S(N)(=O)=O)cc1	.	-12.4	.	1.9	-0.3	-0.1	.	.
O=C(NCc1ccccc1)c1onc(CSc2nc3ccccc3[nH]2)c1C(=O)NCc1ccccc1	i	-26.7	-3.5	10.0	-2.5	-0.6	16.7	-1.6
Continuation:
SMILES	Rce1 inhib	UUG fidelity	eIF4H inh	CSC inhib	MT1-MMP act inh	MT1-MMP act inh RFP	HIV Env fusion	PABP polyA inh	others
O=C(C1CC1)n1cc(C(=S)N2CCOCC2)c2ccccc21	i	.	1.7	-8.5	-2.7	-5.1	.	7.4
O=S(=O)(Nc1ncnc2sc3c(c12)CCC3)c1ccc(Cl)s1	i	-7.9	-2.5	.	-4.7	-3.0	.	19.2
CCCCCCCC(=O)Nc1cc(C(=O)NCCC)ccc1N1CCC2(CC1)CC(c1cccc(Br)c1)=NO2	i	-11.0	.	19.6	3.3	-3.3	20.7	.
COC(=O)c1sccc1NN1C(=O)c2ccccc2C1=O	i	.	0.3	3.8	2.2	-2.4	3.5	1.9
CC(=O)Nc1ccc(C(=O)N2CCCCC2c2cc(C(=O)NCc3ccc(F)cc3)no2)cc1 (centres undefined)	.	10.5	.	.	-1.1	-0.9	-65.8	.
Cc1ccc(OCC(=O)NNc2c3ccccc3nc3ccccc23)cc1	i	.	6.2	13.5	15.7	-14.0	34.1	-5.0
COc1ccccc1NC(=O)C(C)NS(=O)(=O)c1ccc(Cl)cc1 (centres undefined)	i	-13.0	6.6	-1.5	0.6	6.3	-103.1	0.9
CC(C)(C)[C@@H]1COC(=O)[C@@H](Cc2ccc(F)cc2)CC/C=C\C[C@@H](CC(=O)N(CCO)Cc2ccccc2)C(=O)N1	.	23.9	.	.	-2.2	-5.9	-86.5	.
CSCCC(C(=O)OCC(=O)c1ccc(C)c(C)c1)N1C(=O)c2cc(Cl)c(Cl)cc2C1=O (centres undefined)	i	-7.4	-4.5	-4.6	-5.8	-4.5	5.3	2.0
COc1ccc(NC(=O)Nc2cccc3c2O[C@H](CN(C)S(=O)(=O)c2ccc(OC)cc2)[C@@H](C)CN([C@H](C)CO)C3=O)cc1	.	13.9&-10.3	.	-26.1	1.0	-2.4	10.1[16.7 µM]	.
Cc1cc(=O)oc2cc(OC(=O)CCCCCN3C(=O)c4ccccc4C3=O)ccc12	i	.	-7.1	5.1	-2.1	-1.8	11.6	2.4
O=C(C1CC(c2ccc(F)cc2)=NO1)N1CCN(c2ccccc2)CC1 (centres undefined)	i	-20.2	-4.7	-5.4	1.5	0.9	-30.1	3.5
Cc1ccc(-n2nnc3c(SCC(=O)NCc4ccco4)ncnc32)cc1	i	-14.4	7.8	-19.6	-0.3	-3.2	.	-1.0
Fc1ccc(-n2c(-c3ccco3)nc3nc4ccccc4nc32)cc1	i	-11.7	86.1*	-25.4	-10.0	4.1	.	94.1*
CN(CC(=O)Nc1ccccc1Br)C(=O)CCc1ccccc1	i	-4.4	12.0	-0.2	-1.7	-2.1	-0.2	7.2
CCCCCCOc1ccc(N2C(=O)CC(NCCc3ccc(S(N)(=O)=O)cc3)C2=O)cc1 (centres undefined)	i	-7.2	3.4	.	2.1	1.4	-29.3	-5.1
CCCCNc1cc(Cl)nc(N)n1	i	-7.3	56.5	-1.9	6.1	3.4	-17.6	28.1	eIF4H inh retest=2.4;PABP polyA inh retest=4.6
COC(=O)c1ccn(CSc2c(F)c(F)cc(F)c2F)n1	.	-0.6	.	-3.6	0.4	3.4	.	.
Cc1cc(C)c(C#N)c(SCc2ccc3c(c2)OCO3)n1	i	-3.4	-1.6	21.6	-2.1	-0.7	.	1.8
CCc1ccc(N2CC(C(=O)N/N=C/c3ccccc3OC)CC2=O)cc1 (centres undefined)	i	-8.2	8.5	-2.5	2.6	-0.4	3.6	-2.4
COC(=O)Nc1nnc(Cc2ccccc2)s1	i	-21.6	-1.5	.	0.4	4.1	-77.7	-10.4
CCc1nc2ccccc2n1CC(O)COCC1CC=CCC1 (centres undefined)	i	.	4.5	4.6	0.8	-3.4	3.6	-5.5
CCOCCn1ccc2c(OCC(=O)Nc3ccc(OC)c(OC)c3)cccc2c1=O	i	11.3	.	5.1	5.1	-27.6	.	.
Nc1c(C(=O)c2ccccc2)sc2snc(SCC(=O)c3ccccc3)c12	i	.	2.6	-5.9	-18.6	-0.5	.	22.5
O=C(COC(=O)c1ccc(Sc2ccccc2)c([N+](=O)[O-])c1)NC1CCS(=O)(=O)C1 (centres undefined)	i	-5.8	-1.0	10.5	2.3	5.0	-5.6	2.5
(next part)
SMILES	Rce1 inhib	UUG fidelity	eIF4H inh	CSC inhib	MT1-MMP act inh	MT1-MMP act inh RFP	HIV Env fusion	PABP polyA inh	others
CCN1CCN(c2ccc(S(=O)(=O)N3CCCCC3)cc2NC(=O)Cc2ccc(Cl)c(Cl)c2)CC1	i	-17.7	.	-3.1	6.1	4.9	.	.
CC(=O)Nc1ccc(S(=O)(=O)NCC2CCC(C(=O)NCc3ccccc3)CC2)cc1 (centres undefined)	i	.	1.8	4.1	-2.6	1.4	28.4	7.4
CCCn1ncc(C(=O)N(C)C2CCCN(Cc3ccccc3F)C2)c1C (centres undefined)	i	-12.7	-9.7	-19.5	-1.6	0.8	-1.1	-0.9
COc1cc2cccc(OC)c(=O)c2c(O)c1OC	i	-7.9	-10.1	13.2	3.7	5.5	-12.3	?
Cc1ccc(S(=O)(=O)NC(=O)Nc2ccc(C)cn2)cc1	i	-10.2	-6.1	-4.9	0.2	0.5	-19.2	-8.1
O=C(c1cc(-c2ccccc2)nn1-c1ccccc1)N1CCN(S(=O)(=O)c2ccc(F)cc2)CC1	i	.	.	61.4	-3.3	-4.8	23.9	.
COc1ccccc1CNc1ncc(-c2ccc(F)cc2)n1C	i	4.7	-2.5	-6.0	-0.1	-4.4	1.9	11.7
CNc1ccc(C(=O)OCC(=O)NC(=O)NC2CCCC2)cc1[N+](=O)[O-]	.	-15.0	.	7.4	3.7	-1.6	.	.
Nc1nc(Nc2cccc(F)c2)nc2ccccc12	i	-8.1	15.4	2.4	34.6*	4.3*	-306.0	-1.7
CCOc1ccc(NC(=O)CC2C(=O)N(c3ccc(OC)cc3)C(=O)N2CCc2ccc(OC)c(OC)c2)cc1 (centres undefined)	.	4.6	0.2	-3.1	1.4	-0.6	-1.7	2.6
COc1ccc(Nc2nnc(-c3ccncc3)s2)cc1Cl	i	-21.7	-0.3	-7.7	-0.2	-1.0	13.4	-12.3
CCOc1ccc2oc(-c3ccccc3)c(C(N)=O)c2c1	i	-6.3	1.9	.	0.1	2.1	8.5	-9.0
CCc1cc2cc3c(cc2nc1SCC(=O)OC(C)C)OCO3	i	.	-5.2	-1.2	-2.8	-5.5	20.6	-4.8
CC1(C)CC(=O)C=C(NCc2ccc(Cl)c(Cl)c2)C1	i	.	-3.8	-16.9	1.6	-0.9	60.1*	-0.6
CC(C)Cn1c(N)c(C(=O)COC(=O)c2cc3ccccc3cc2O)c(=O)n(C)c1=O	.	9.0	.	-8.6	4.3	-18.9	.	.
Cc1cc(C)nc(/N=C(\N)C2=C(O)CC(C)(C)CC2=O)n1	.	-10.2	0.2	-5.1	2.6	1.5	-28.9	-5.0
Cc1cccc(C)c1NC(=S)N(c1ccccc1)C(C)C	i	-9.1	-7.8	7.4	1.2	3.1	0.9	7.9
CCOc1ccccc1NC(=O)CN(C)S(=O)(=O)c1ccc(OC)c(C)c1	i	-2.7	-5.3	4.0	0.6	2.4	.	-11.8
Cc1ccc2nc(C(C)(C)C)c(Cc3ccccc3C(F)(F)F)n2c1	.	23.1	.	.	-6.3	-7.6	-0.2	.
